Cruzain inh noDet: cruzain (T. cruzi) inhibition without detergent; Potency, µM, inactives show max response, negative = inhibition, actives largely listed as inhibitors; P25779; purified cruzain, Z-FR-AMC fluorescence, no detergent; AID 1476; 2.3% of 200,000 active;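 also: plate controls were enzyme without inhibitor for no effect and buffer without enzyme for full effect; nearly all actives have a fitted effect of over 40% in size; top concentration of the series not given in the record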
Target sequence (P25779 123-467 limits assumed): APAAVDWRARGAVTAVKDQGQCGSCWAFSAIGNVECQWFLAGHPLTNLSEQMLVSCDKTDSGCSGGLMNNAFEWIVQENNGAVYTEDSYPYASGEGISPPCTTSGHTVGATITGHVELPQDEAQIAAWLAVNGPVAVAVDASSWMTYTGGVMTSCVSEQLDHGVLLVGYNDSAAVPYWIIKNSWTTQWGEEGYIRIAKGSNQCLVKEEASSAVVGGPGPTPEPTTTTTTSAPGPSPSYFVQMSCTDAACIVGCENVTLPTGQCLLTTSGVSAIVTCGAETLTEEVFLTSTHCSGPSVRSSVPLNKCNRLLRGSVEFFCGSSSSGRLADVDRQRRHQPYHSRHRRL
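Purified cruzain at 1.5 nM, pre-incubated 15 min with compound at room temperature in 100 mM sodium acetate pH 5.5, 5 mM DTT, 0.00005% Triton X-100. Reaction started with 2 uM Z-FR-AMC; AMC fluorescence increase over 60 s gives rate.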
NS1 inh: blocks influenza NS1 protein function; S. cerevisiae slowed by influenza A NS1, growth recovery by OD600; Potency, µM (highest dose often 46.1 µM), without a hit: top-dose activity, positive = more growth; 0.4% of 270,000 active; active means well fitted rising curve with a large enough effect; inconclusive means small, poorly fitted or top-dose-only effect; inactive means no such curve, though single readings can be large or run the other way; also: nearly all actives have a fitted effect of over 50% in size
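A cell-based growth assay was used: compounds that relieve NS1-induced slow growth of budding yeast raise OD600. Assay medium was yeast nitrogen base with ammonium sulphate and -URA supplement, pH 6.0, with 2% galactose.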
2A StopGo: lowers the luciferase signal of an FMDV 2A StopGo reporter. human cells with a luciferase reporter of 2A StopGo recoding; control for the full effect not named in the record. 1.2% of 410,000 active. Potency, µM (doses to about 57.9 µM), inactives show top-dose signal change, negative = less light; active = well fitted falling curve with a large enough effect; inconclusive = small, poorly fitted or top-dose-only effect; inactive = no such curve, though single readings can be large or run the other way; tested in HEK293T cells; also: % is scaled to controls: 0 for no effect and ±100 for the full control effect; nearly all actives have a fitted effect of over 45% in size; luciferase light after 4 h
Cruzain inh Det: inhibitors of Trypanosoma cruzi cruzain with detergent; purified cruzain, Z-FR-AMC fluorescence, 0.01% Triton; Potency, µM, for inactives: max response, negative = inhibition, actives largely listed as inhibitors; 0.43% of 200,000 active;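 also: plate controls were neutral wells for no effect and buffer without enzyme for full effect; nearly all actives have a fitted effect of over 40% in size; top concentration of the series not given in the record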
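Z-FR-AMC hydrolysis (2 uM substrate) by cruzain (1.5 nM) monitored kinetically at ex 360/em 450 nm after 15 min room-temperature compound exposure; 0.01% Triton X-100, pH 5.5, 5 mM DTT.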
Marburg entry inh: Marburg virus entry inhibition; Marburg virus pseudotyped entry inhibition, cell reporter; control for the full effect not named in the record; about a third of the inactives were read at about 46 µM; Potency, µM (series often up to 37.8 µM), inactives show at the top dose activity change, negative = inhibition, usual class: inhibitors; 1.8% of 300,000 active; AID 540276; active = well fitted inhibition curve with a large enough effect; inconclusive = small, poorly fitted or top-dose-only effect, or effect the other way; inactive = flat fitted curve, though single readings scatter; tested in HEK293 cells; about a fifth of its hits are not listed in these tables; also: % is scaled to controls: 0 for no effect and ±100 for the full control effect; luciferase read-out
RE007 growth inh: less growth of the S. pombe RE007 Vpr strain; S. pombe RE007 Vpr strain, BacTiter-Glo ATP luminescence, 24 h; control for the full effect not named in the record; Potency, µM (titrated, usually from 92.2 µM), inactives show top-dose activity change, negative = less growth; 0.21% of 360,000 active; AID 651644; active = well fitted falling curve with a large enough effect; inconclusive = small, poorly fitted or top-dose-only effect; inactive = no such curve, though single readings can be large or run the other way;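 also: % is scaled to controls: 0 for no effect and ±100 for the full control effect; nearly all actives have a fitted effect of over 50% in size; the assay follows cell death caused by Vpr and the record does not say whether a fall means rescue or toxicity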
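Fission yeast strain RE007, carrying one chromosomally integrated HIV-1 vpr copy, was seeded at OD 0.01 in PMG+AL medium with 23 nL pinned compound. After 24 h at 30 °C and 99% humidity, viability was read by BacTiter-Glo luminescence.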
Lassa entry inh: blocks Lassa virus binding to or entry into cells. 1.2% of 300,000 active. AID 540256. Lassa virus pseudotype entry inhibition, cell reporter; control for the full effect not named in the record. Potency, µM (top dose mostly 37.9 µM), without a hit: at the highest dose activity change, negative = inhibition, usual class: inhibitors; active means well fitted inhibition curve with a large enough effect; inconclusive means small, poorly fitted or top-dose-only effect, or effect the other way; inactive means flat fitted curve, though single readings scatter; tested in HEK293 cells; also: % is scaled to controls: 0 for no effect and ±100 for the full control effect; nearly all actives have a fitted effect of over 50% in size; luciferase read-out
SARS PLpro yeast: SARS-CoV PLP inhibition in yeast; Potency, µM (doses to about 32.9 µM), for the others: at the highest dose activity, positive = growth rescue; S. cerevisiae expressing SARS-CoV PLpro, growth rescue; control for the full effect not named in the record; AID 485353; 0.19% of 330,000 active; active means well fitted rising curve with a large enough effect; inconclusive means small, poorly fitted or top-dose-only effect; inactive means no such curve, though single readings can be large or run the other way; also: 0% is about no effect; nearly all actives have a fitted effect of over 55% in size; growth read by luminescence after 48 h
Numbers without * were called inactive; ? = inconclusive; / = no result given; [ ] = dose if it differs, or a comment. Unless noted, calls follow the shape of the dose curve; as a rule, active = well fitted curve in the direction sought with a large enough effect; inconclusive = small, poorly fitted or top-dose-only effect, or another doubt; inactive = no such curve, though single readings can be large; an effect the other way counts as inactive or inconclusive. Potency is read from the fitted curve at half-maximal effect.

SMILES | Cruzain inh noDet | NS1 inh | 2A StopGo | Cruzain inh Det | Marburg entry inh | RE007 growth inh | Lassa entry inh | SARS PLpro yeast
COc1ccc(-c2cc(C(F)(F)F)nc(SCCC(=O)Nc3ccc(F)cc3F)n2)cc1 | -10% | / | -23% | -7.4% | -4%[46.1 µM] | / | -2%[46.1 µM] | /
COc1cc(C(C)=O)ccc1OC(=O)c1cc2cccc(OC)c2oc1=O | / | -5% | -8% | / | / | 1% | / | 0%
COc1cc(C(=O)Nc2cccc3cccnc23)cc(OC)c1OC | -3% | -50% | ? | -2.2% | -27% | -21% | ? | -4%
COc1ccccc1NC1=C(Cl)C(=O)N(c2ccccc2)C1=O | -13% | -3% | -13% | -5.4% | -3% | / | ? | -17%
CCOc1ccc(C(C)(C)C)cc1S(=O)(=O)N1CCOCC1 | 14% | 6% | -18% | -5.1% | ? | -4% | -13% | 20%
CCCC(=O)Nc1nn(C)c2nc3c(C)cccc3cc12 | -12% | -13% | 7% | -1.1% | -4% | 23% | 5% | 2%
CCC(C)/C(C)=N/NC(=O)C1COc2ccccc2O1 (configuration not stated) | 1% | 3% | 12% | -1.3% | 6% | 7% | -27% | 2%
FC(F)(F)c1cc(-c2ccccc2)nc(N2CCCCC2)n1 | -5% | -14% | -1% | -2.4% | -2% | 4% | -2% | ?
COc1cccc(-c2nc(=S)c3c(o2)CCCC3)c1 | / | -2% | 51%[activator] | / | / | -10% | / | -1%
Fc1ccc(CSc2nnc(-c3cc4c(s3)-c3ccccc3CC4)o2)cc1 | -17% | -15% | -11% | 16% | -11% | 11% | -12% | ?
CCOC(=O)N1CCN(S(=O)(=O)c2ccc(C(=O)Nc3nnc(CSC)o3)cc2)CC1 | 3% | 0% | 6% | -0.6% | -2% | 12% | 3% | -13%
CCOc1cc2c(cc1OCC)-n1cccc1C(c1ccc(OC)c(OC)c1)NC2 (configuration not stated) | / | 4% | ? | / | / | -1% | / | 1%
Cn1c(/C(C#N)=C/c2ccncc2)nc2ccccc21 | / | 5% | 16µM* | / | / | -4% | / | 1%
Cc1ccsc1/C=N/NC(=O)Cc1ccc(Cl)cc1 | / | -41% | -3% | / | / | -8% | / | -3%
Cc1ccc(/C=N/NC(=O)c2c(-c3ccccc3)noc2C)o1 | 4% | 2% | -13% | -3.5% | 19% | 16% | 5% | 5%
Cc1nnc(SCc2nc3sc4c(c3c(=O)[nH]2)CCCC4)[nH]c1=O | / | 5% | -19% | / | 5% | 3% | 16% | -1%
CC(=O)c1c(C(C)=O)c(C)n(NC(=O)c2cccnc2)c1C | 2% | -7% | / | -1.3% | 4% | 16% | 1% | 6%
Cc1ccc(S(=O)(=O)N(C)c2ccc(OCC(=O)O)cc2)cc1 | 3% | 8% | 15% | 1.9% | 11% | -1% | 9% | -4%
Cc1nc(-c2ccccc2)sc1-c1nc(-c2cccnc2)ncc1S(=O)(=O)c1ccccc1 | ? | 5% | 0% | -6.6% | -14% | -9% | -7% | -8%
COc1ccc(NC(=O)NC2(C(=O)N3CCN4CCCC4C3)CCCCC2)cc1 (configuration not stated) | / | -5% | 9% | / | 24%[46.1 µM] | 4% | 18% | 2%
Cc1ccc(NC(=O)CN2C(=O)CCS(=O)(=O)c3ccccc32)cc1Cl | / | 9% | -11% | / | 4%[46.1 µM] | -8% | -2%[46.1 µM] | -7%
CCN(CC)CCCN1C(=O)C(O)=C(C(=O)c2ccco2)C1c1cc(OC)ccc1OC (configuration not stated) | -9% | -6% | / | 2.1% | / | / | / | -1%
Cc1noc(C)c1S(=O)(=O)N1CCCC(C(=O)NC2CCCCC2)C1 (configuration not stated) | -15% | 2% | / | 4.6% | ? | 0% | -27% | 16%
CN(C)C(=O)c1ccc(NC(=O)COC(=O)CC23CC4CC(CC(Br)(C4)C2)C3)cc1 | / | / | -11% | / | 2%[46.1 µM] | 1% | 27% | 0%
COc1cccc(COC(=O)C2CCN(C(=O)c3ccc(F)cc3)CC2)c1OC | / | / | ? | / | ? | 20% | -30%[46.1 µM] | 2%
COc1cc(C(=O)N(Cc2ccc(C(C)C)cc2)C2CCS(=O)(=O)C2)cc(OC)c1OC (configuration not stated) | ? | / | -4% | -2.3% | -20%[46.1 µM] | / | ? | /
CC1(c2nnc(-c3ccccc3)o2)CC(c2ccc(F)cc2)=NO1 (configuration not stated) | / | -66% | -7% | / | / | 13% | / | -3%
CCCc1nnc(NC(=O)CCC(=O)N2CCN(c3ccccc3)CC2)s1 | / | 1% | -3% | / | 4%[46.1 µM] | -1% | 2%[46.1 µM] | 9%
COCCNC(=O)Cn1cnc2ccc(S(=O)(=O)N3CCC(C)CC3)cc2c1=O | 10% | 5% | -20% | 7.4% | 4% | 4% | ? | -2%
O=C(Nc1cccc(C(=O)Nc2cccc(C(F)(F)F)c2)c1)c1ccc(=O)[nH]c1 | / | -16% | -4% | / | -2%[46.1 µM] | 16% | -14% | 8%
CCOC(CNC(=O)CN1C(=O)COc2ccc(S(=O)(=O)N3CC(C)CC(C)C3)cc21)OCC (configuration not stated) | / | -18% | -7% | / | / | 3% | / | -3%
Cc1c(C(=O)NC(=S)Nc2ccc3c4c(cccc24)CC3)cccc1[N+](=O)[O-] | ? | 3% | -17% | 0.5% | -17% | -9% | ? | 5%
C=CCC(NCc1ccccc1)c1ccc(C)o1 (configuration not stated) | / | / | -2% | / | 3% | 1% | -4% | /
O=C(N/N=C/c1ccc(O)c([N+](=O)[O-])c1)C(O)(c1ccccc1)c1ccccc1 | / | 7% | 23% | / | -26%[46.1 µM] | 3% | -9%[46.1 µM] | -3%
O=C1CCC(=O)N1c1ccc(CSc2nnnn2C2CCCCC2)cc1 | 17% | -8% | -9% | 3.0% | -1% | -15% | 4% | 9%
O=S(=O)(NCC(c1ccccc1)N1CCc2ccccc21)c1ccc(Cl)cc1 (configuration not stated) | ? | / | -9% | -7.4% | ? | / | -6%[46.1 µM] | /
O=C(NCc1ccco1)C1OCCc2ccccc21 (configuration not stated) | 2% | 15% | -7% | -4.9% | ? | 24% | 18% | 5%
CCOc1ccc(NC(=O)CCc2nnc3ccc(N4CCC5(CC4)OCCO5)nn23)cc1 | / | -8% | -4% | / | 13%[46.1 µM] | -8% | 3%[46.1 µM] | -6%
CCc1ccc(CN(C)C(=O)CCc2nnc(COc3ccccc3)o2)cc1 | / | -5% | 75%[activator] | / | / | 6% | / | -1%
Cc1cccc(CSCc2ccc(C(=O)O)o2)c1 | / | 2% | 21% | / | / | 0% | / | 1%
Cc1ccc(C)n1-n1c(C)nc2scc(-c3cccs3)c2c1=O | 1% | -37% | -27% | -6.4% | -29% | -3% | ? | -4%
CCCN(CCC)CC(O)CN1C(=O)N(CN2C(=O)N(CC(O)CN(CCC)CCC)C(=O)C2(C)C)C(C)(C)C1=O (configuration not stated) | / | / | -8% | / | ? | -3% | 20% | 5%
CCCCNC(=O)C1CCCN(c2nnc(C)c3c(C)n(-c4ccc(Cl)cc4)nc23)C1 (configuration not stated) | -5% | / | -15% | -3.0% | / | / | 0%[46.1 µM] | /
CC(=O)Nc1cccc(NC(=O)Cn2cnc3c2c(=O)n(C)c(=O)n3C)c1 | -3% | / | 17% | -3.6% | / | / | 25%[46.1 µM] | /
Cc1cccc(NC(=O)N2CCC(NC(=O)C3CCCCC3)CC2)c1 | / | 3% | -8% | / | 7%[46.1 µM] | -20% | 1%[46.1 µM] | 2%
Cc1ccc(NC(=O)c2ccc(Nc3ccccc3F)nc2)cc1 | -7% | 9% | 38%[activator] | -6.1% | 42% | 3% | -1% | -8%
O=C(O)Cc1sc(Nc2ccc(C(=O)O)cc2)nc1-c1ccccc1 | -6% | / | 19% | -5.2% | ? | / | 27%[46.1 µM] | /
Cc1ccc2cc3cc(C(=O)N4CC(C)CC(C)C4)oc3nc2c1 (configuration not stated) | 10% | -66% | 17% | -12% | 14% | ? | 5% | -11%
CC1CN1P(=S)(c1ccccc1)N1CC1C (configuration not stated) | / | / | -20% | / | 0% | -10% | 15% | /
Cc1ccc(-n2c(SCc3cccc(F)c3)nc3[nH]ncc3c2=O)cc1C | 12% | / | 0% | -12% | / | / | -13%[46.1 µM] | /
Cn1c(N)c(C(=O)CSc2nc3ccccc3[nH]2)c(=O)n(C)c1=O | / | ? | -14% | / | / | -6% | / | -1%
CN(C)S(=O)(=O)c1cccc(NC(=S)Nc2cc(Cl)cc(Cl)c2)c1 | 14% | -59% | -15% | -8.9% | -22% | 1% | 2% | -14%
CC(=O)Nc1ccc(NC(=O)C(C)OC(=O)C2(c3ccc(Cl)cc3)CCCC2)cc1 (configuration not stated) | ? | -14% | -30% | -11% | 1% | 24% | -28% | 4%
COc1ccc(/C=N/NS(=O)(=O)c2ccccc2)cc1OC(=O)c1ccc(C)cc1 | ? | 8.9µM* | 19% | -0.4% | -8% | 19% | ? | 3%
Cc1cc(=O)cc(C)n1-c1ccc(Cl)cc1 | / | 1% | -11% | / | 13% | 6% | 20% | 0%
O=[N+]([O-])c1cccc(/C=N/Nc2nc(NCc3ccccc3)nc(N3CCOCC3)n2)c1O | / | 1% | -21% | / | / | 22% | / | -1%
CCOC(=O)CCN(Cc1cccs1)S(=O)(=O)c1ccc(Cl)cc1 | -6% | -103% | 3% | -5.3% | 15% | 4% | -23% | -8%
COc1ccc2[nH]cc(C(=O)CN3CCCCC3)c2c1 | -12% | 16% | 8% | -3.0% | 1% | 3% | -11% | -1%
COc1cc(OC)c(C2C(C#N)=C(N)OC3=C2C(=O)CC(C)C3)cc1OC (configuration not stated) | -3% | -10% | -12% | 2.6% | -8% | 0% | ? | 5%

Screening data: PubChem BioAssay, National Center for Advancing Translational Sciences (NCATS)
